# Assay outcomes as filed in PubChem BioAssay.
# VDR inhibitor = vitamin D3 receptor (human) inhibition; P11473; Potency, µM, for the others: max response, negative = inhibition, usual class: inhibitors; 400,000 compounds, 0.93% hits; AID 504847; VDR-SRC2-3 peptide fluorescence polarization, 2 h; active = well fitted inhibition curve with a large enough effect; inconclusive = small, poorly fitted or top-dose-only effect, or another doubt; inactive = no such curve, though single readings can be large or run the other way; also: series mostly up to about 120 µM
# Target sequence (P11473 whole entry, looked up): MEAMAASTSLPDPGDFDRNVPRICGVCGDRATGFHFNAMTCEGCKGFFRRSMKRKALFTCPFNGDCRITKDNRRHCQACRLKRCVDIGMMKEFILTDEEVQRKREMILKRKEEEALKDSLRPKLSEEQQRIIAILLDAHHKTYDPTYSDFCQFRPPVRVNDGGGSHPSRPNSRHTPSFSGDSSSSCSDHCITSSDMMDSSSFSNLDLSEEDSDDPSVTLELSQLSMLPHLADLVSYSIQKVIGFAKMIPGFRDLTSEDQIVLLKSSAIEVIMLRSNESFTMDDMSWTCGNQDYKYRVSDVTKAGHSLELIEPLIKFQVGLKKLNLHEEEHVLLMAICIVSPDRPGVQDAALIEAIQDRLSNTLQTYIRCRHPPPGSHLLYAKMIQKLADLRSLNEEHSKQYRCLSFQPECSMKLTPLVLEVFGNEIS
#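 Fluorescence polarization assay of small-molecule disruption of VDR binding to coregulator peptide SRC2-3. Compounds and controls pin-transferred, then read after 2 h incubation at ambient room temperature.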
# Starred values were filed as active, the others as inactive; ? = inconclusive; & = joins results of further samples. % is scaled to controls: 0 for no effect and ±100 for the full control effect; potency is read from the fitted curve at half-maximal effect.
no.	mol	VDR inhibitor
1	COc1ccc(C(C(=O)NC2CCCCC2)N(C(=O)CCl)c2ccc(OC)cc2)cc1 (centres undefined)	-18.2%
2	COc1cc(NC(=S)N2CCN(Cc3ccccc3)CC2)cc(OC)c1	15.8%
3	Cc1cccc(C2=NN(c3ccccc3)[C@@H](C(=O)N3CCOC3=O)[C@@H]2c2ccccc2)c1	-15.2%&-23.7%
4	COc1ccc(C(C)(C)C)cc1NC(=O)c1cncc(Br)c1	-2.7%
5	O=C(c1ccc(N2CCCC2)c([N+](=O)[O-])c1)N1CCN(CCO)CC1	8.7%
6	CCCNC(=O)c1cccc(COCC(F)(F)F)c1	-22.8%
7	Cc1cc(-n2nc(C)cc2C)nc(N)n1	-5.6%
8	CCCCc1nc2cc(C(=O)NCCc3cnn(C)c3)ccc2o1	2.3%
9	CC1(C)C2(Cl)C(Cl)C(Cl)C(Cl)(C(Cl)Cl)C1(Cl)C2Cl (centres undefined)	8.6%
10	COc1cc2cc(CCCOC(=O)c3ccco3)oc(=O)c2cc1OC	-17.5%
11	Cc1cc(OCC(=O)OCC(=O)Nc2cc(C(F)(F)F)ccc2N2CCOCC2)ccc1Cl	10.5%
12	CC1CN(c2nc3ccccn3c(=O)c2/C=C(\C#N)C(=O)N2CCOCC2)CC(C)O1 (centres undefined)	-15.0%
13	CCCCn1c(N)c(N(CCOC)C(=O)c2cc(-c3ccccc3)nc3ccccc23)c(=O)[nH]c1=O	-7.5%
14	COc1ccc(F)cc1C(=O)COC(=O)c1n[nH]c(=O)c2ccccc12	-3.2%
15	COc1ccc(C(=O)Nc2cccc(/C=C(\CCC(=O)O)c3nc4ccccc4s3)c2)cc1	?
16	CC(=O)Nc1ccc(NC(=O)CCn2cnnn2)cc1	-15.5%
17	O=C(O)c1cc(=O)c2c(Cl)cc(Cl)cc2[nH]1	-10.2%&-7.8%
18	Cc1ccc(C(=O)c2cn(CC(=O)NC3CCCCC3)c3nc(C)ccc3c2=O)cc1	7.4%
19	C=C(C)C(O)/C=C/c1ccc(C(F)(F)F)cc1 (centres undefined)	10.9%&0.8%
20	CCn1c(NC(=O)Nc2cccc(C)c2C)cc2sccc21	-1.2%
21	Cc1ccc(CN2CCN(Cc3ccon3)CC2CCO)cc1 (centres undefined)	2.0%
22	COc1ccc(CNC(=O)c2ccc3c(c2)CCN3S(=O)(=O)c2ccc(C)cc2)cc1	5.1%
23	COC(=O)C(Cc1ccc(O)cc1)NC(=O)CCC(=O)Nc1ccc(S(N)(=O)=O)cc1 (centres undefined)	-5.5%
24	CC(=O)N1c2ccc(S(=O)(=O)N3CCCC3C(=O)Nc3ccc(C)cc3)cc2CC1C (centres undefined)	11.3%
25	Cc1cc(C)nc(NC(=S)Nc2ccc(Br)cc2Cl)c1	3.6%
26	N#CCCn1cc(C(=O)Nc2ccc(C(=O)O)cc2)c(-c2cccs2)n1	?
27	CC(=O)c1sc(C(C)(C)C)cc1NC(=O)CCC(=O)O	-4.6%
28	COc1ccc(C(=O)N/N=C\c2coc3ccc(C)cc3c2=O)cc1	-14.6%
29	COC(=O)c1[nH]c2cc(OC)ccc2c1NC(=O)CN1CCC(C(N)=O)CC1	2.5%
30	CCOc1ccc(NC(=O)CN(C)C(=O)c2c(C)noc2C)cc1OCC	-25.0%
31	COc1ccc2c(C#CCCO)c(-c3ccc(S(C)(=O)=O)cc3)sc2c1	-7.8%
32	Cc1c(NC(=O)C(C)N2C(=O)c3ccccc3C2=O)c(=O)n(-c2ccccc2)n1C (centres undefined)	-7.5%
33	CC(C)CNC(=O)COC(=O)c1c2c(nc3ccccc13)CCC2	12.1%
34	CCOc1ccccc1OCCOCCN1CC(C)OC(C)C1 (centres undefined)	-3.3%
35	CC1CN(C(=O)N2CCOCC2)CCN1C(=O)N1CCOCC1 (centres undefined)	-2.1%
36	O=C(CC(=O)NN=Cc1ccc2c(c1)CCC2)NN=Cc1ccc2c(c1)CCC2	-2.8%
37	CCOC(=O)c1c(Cc2ccccc2)c[nH]c1C	-5.5%
38	CC(C)(C)OC(=O)N(CCc1ccccc1)Cc1ccc(OCc2cccc(NC(=O)/C=C/c3ccccc3)c2)cc1	-1.8%
39	CC(C)(C)c1ccc(-c2nnc(SC3CCOC3=O)n2Cc2ccccc2)cc1 (centres undefined)	-15.0%
40	Cc1cnc(C=NNC(N)=S)c2cccc(N)c12	?
41	Cn1c(/C=N/c2nc3ccccc3[nH]2)nc2ccccc21	3.5%
42	COc1ccc(Cl)cc1NC(=O)CSC1=Nc2ccccc2C2=NC(CC(=O)NC3CCCCC3)C(=O)N12 (centres undefined)	-13.8%
43	CC(C)(C)C(=O)Cn1ncc(NC2CC2)c(Br)c1=O	-0.6%
44	CC1C(=O)C(C)C(c2cc(Cl)ccc2O)NC1c1cc(Cl)ccc1O (centres undefined)	-2.8%
45	CCn1c(=O)n(-c2ccc3c(c2)OCO3)c2nc(-c3ccc(C(C)C)cc3)nc(C(N)=O)c21	-16.5%
46	COc1ccc(/C=C2\COc3ccccc3C2=O)cc1OC	?
47	Cc1onc(-c2ccccc2Cl)c1C(=O)OCn1nnc2ccccc2c1=O	18.2%
48	CN(C)c1ncc(C2=C(Cl)C(=O)C(N3CCCC3)=C(Cl)C2=O)s1	28.2µM*
49	CCC(C(=O)NCc1cccnc1)c1ccccc1 (centres undefined)	12.9%
50	Cc1[nH]n(-c2ccccc2)c(=O)c1N=Nc1ccc2c(c1)OCO2	-5.8%
51	CCOC(=O)c1ccc(NC(=O)Cn2cc(C(=O)c3cccs3)c3ccccc32)cc1	-7.9%
52	COc1ccc(C2(CNC(=O)Cc3ccc(OC)c(OC)c3)CCOCC2)cc1	0.1%
53	COc1ccc(C(=O)Nc2ccc(C(=O)N3CCCCC3C)cc2)c(OC)c1OC (centres undefined)	-9.9%
54	Cc1cc2cc3c(=O)[nH]c(=O)nc-3n(CC(O)C(O)C(O)CO)c2cc1C (centres undefined)	-13.4%
55	COc1ccc(OC)c(CCNC(=O)c2ccc3c(c2)c(C)c(C)n3Cc2ccccc2)c1	17.6%
56	COc1ccc(-c2noc(CSc3nnc(Cc4ccccc4)n3-c3ccc(F)cc3)n2)cc1	1.2%
57	Cc1ccc(COC(=O)CCN=C2NS(=O)(=O)c3ccccc32)cc1	-13.4%
58	O=S(=O)(Nc1nc2ccccc2nc1NCCN1CCOCC1)c1cccc(Cl)c1	7.7%
59	O=C(NNC(=O)C1CCCCC1)c1cnccn1	5.3%
60	COc1ccc(C2CC(=O)c3cnc(NC(=O)c4cccc(OC)c4)nc3C2)cc1 (centres undefined)	12.7%

# 4 compounds picked at random from the list so far:
no.	mol	VDR inhibitor
42	COc1ccc(Cl)cc1NC(=O)CSC1=Nc2ccccc2C2=NC(CC(=O)NC3CCCCC3)C(=O)N12 (centres undefined)	-13.8%
55	COc1ccc(OC)c(CCNC(=O)c2ccc3c(c2)c(C)c(C)n3Cc2ccccc2)c1	17.6%
46	COc1ccc(/C=C2\COc3ccccc3C2=O)cc1OC	?
58	O=S(=O)(Nc1nc2ccccc2nc1NCCN1CCOCC1)c1cccc(Cl)c1	7.7%

# Remaining list, next part
no.	mol	VDR inhibitor
61	O=C(Nc1ccn(Cc2cccc3ccccc23)n1)c1cccnc1	0.3%
62	CC(C)(C)C(=O)OCc1nc(-c2ccc(C(F)(F)F)cc2)cs1	9.2%
63	COC(=O)c1cc(S(=O)(=O)NCCc2cccc(C)c2)cn1C	-18.0%
64	CCc1nnc(NC(=O)C2CCCN2C(=O)NC2CCCCC2)s1 (centres undefined)	-17.1%
65	COC(=O)c1c(C)oc2ccc(OC(=O)N3CCOCC3)cc12	-21.9%
66	CC(=O)Nc1ccc(S(=O)(=O)N2CCN(c3nnnn3-c3ccccc3)CC2)cc1	-16.4%
67	COC(=O)c1c(Oc2nc(OC)cc(OC)n2)cccc1Oc1nc(OC)cc(OC)n1	1.5%
68	Cc1cc(Cl)ccc1C(=O)C1CCCN(C(=O)c2cccc(N3CCCC3=O)c2)C1 (centres undefined)	?
69	COc1ccc(C2NC(=O)N(C)C3=C2C(=O)N(c2ccc(C)cc2)C3)cc1 (centres undefined)	4.0%
70	CC(C(=O)c1ccc(Br)cc1)[n+]1cccc2ccccc21 (centres undefined)	-7.0%
71	O=C(Cc1ccccc1)c1nc2ccccc2s1	-23.1%
72	CN1CCN(c2ncnc3ccc(-c4ccccc4C(F)(F)F)cc23)CC1	-28.9%
73	CCc1ccc(C(=O)OCC(=O)NC2CCCC2)cc1	-4.0%
74	Cc1cc(C)cc(NC(=O)C2CCCN(C(=O)c3cnn(-c4ccccc4)c3-n3cccc3)C2)c1 (centres undefined)	11.5%
75	COc1cccc(NC(=O)C(C)Sc2nnc(C3CC3)n2C2CC2)c1 (centres undefined)	17.3%
76	CSc1cc(-c2ccccc2)n(Cc2c(Cl)cccc2Cl)c(=O)c1C#N	3.8%
77	CCc1ccccc1NC(=O)CN1CCN(C(=O)CNC(=O)c2ccc(N3CCCC3=O)cc2)CC1	-16.6%
78	COc1ccc(OC)c(NC(=O)c2cc3c(=O)n4ccccc4nc3n2C)c1	14.1%
79	CC1CCN(C(=O)CSc2nc(=O)n3ccccc3n2)CC1	7.9%
80	C#CCOCCOCCOCCNc1nc(N2CCN(C(=O)[C@H](Cc3ccc(O)cc3)n3cc([C@@H](N)CC(C)C)nn3)CC2)nc(N2CCN(C(=O)[C@H](Cc3cc4ccccc4[nH]3)n3cc([C@@H](N)CC(C)C)nn3)CC2)n1	2.3%
81	Oc1ccc(Nc2nc(-c3ccccc3F)nc3ccccc23)cc1	16.0%
82	COc1cc(OC)cc(C(=O)Nc2cc3nn(-c4ccccc4)nc3cc2Cl)c1	-15.3%
83	COCCNC(=O)c1cccc(OC2CCN(Cc3ccc(C(=O)OC)cc3)CC2)c1	-0.1%
84	COc1ccc(C2SCC(C(=O)O)N2C(C)=O)cc1 (centres undefined)	11.0%
85	COc1ccc(N(C(=O)c2cccc(OC)c2OC)C2C=CS(=O)(=O)C2)cc1 (centres undefined)	10.0%
86	CCC(CO)Oc1cc(NCc2cccnc2)c2ncn(C(C)C)c2c1 (centres undefined)	?
87	O=C(CSc1nnc(COc2ccc3c(c2)CCCC3)o1)Nc1ccc(F)cc1	18.1%
88	COc1ccc2c(c1)sc1ncc(C(=O)NCc3cccc(C)c3)c(=O)n12	17.4%
89	COC(=O)c1ccc2nc(C)cc(Nc3ccc(N(C)C)cc3)c2c1	3.7%
90	O=C(O)c1cccc(-c2ccc(/C=N/Nc3ccc([N+](=O)[O-])cc3)o2)c1	-9.5%
91	COCCC(=O)N1CCC(Oc2ccc(C(=O)N(C)C3CCCCC3)cc2)CC1	1.0%
92	Cc1ccc(-c2cc(C(F)F)nc(N3CCC(C)CC3)n2)cc1	-8.7%
93	CCCS(=O)(=O)NCc1cn2cccc(C)c2n1	1.9%
94	Cc1cc(NC(=O)CSc2nc3c([nH]c4ccccc43)c(=O)n2-c2ccccc2)no1	-5.3%
95	O=C(NCCCl)Nc1ccc(Cl)c([N+](=O)[O-])c1	12.0%
96	O=[N+]([O-])c1cc(C(F)(F)F)ccc1NN=C1CCCC1	-4.4%
97	O=C(/C=C/c1ccc(F)cc1)NC(=S)N1CCN(c2ccccn2)CC1	5.6%
98	COc1cc2sc3ccc(-c4ccc(N(C)C)nc4)cc3c(=O)c2cc1OC	0.1%
99	COc1ccc(S(=O)(=O)NCC2CCCN(C(=O)CSC)C2)cc1 (centres undefined)	1.1%
100	C=Cc1ccc(Cn2c(C(=O)O)c(CNCCc3ccccc3)c3ccc(C)cc32)cc1	15.3%
101	COc1ccccc1CNC(=O)CN1C(=O)NC2(CCOc3ccccc32)C1=O (centres undefined)	1.2%
102	Cc1cccc(N2CCN(C(=O)CCNS(=O)(=O)c3ccc4c(c3)oc(=O)n4C)CC2)c1C	-7.1%
103	Cc1ccc(CNC(=O)CSc2ncc(C(=O)Nc3ccccc3)c(=O)n2C)cc1	-20.1%
104	O=C(N/N=C/c1sc(N2CCOCC2)nc1-c1ccccc1)c1cccc(S(=O)(=O)N2CCCC2)c1	3.8%
105	Cc1ccc(S(=O)(=O)NN=C2C3CC4CC(C3)CC2C4)cc1[N+](=O)[O-]	-12.7%
106	CC1N=C(N)C(c2nc3ccccc3n2C)=C1O (centres undefined)	15.4%
107	O=C(COC(=O)COc1ccc(Br)cc1)NC1CCCC1	5.1%
108	Cc1cc2nc(CSc3ccc(Cl)cc3)cc(=O)n2[nH]1	4.9%
109	Cc1cc(OCCOCCNCc2ccccc2)ccc1C(C)C	2.9%
110	CCc1ccc(OCC(=O)Nc2c(C(=O)c3ccccc3)oc3ccccc23)cc1	-4.9%
111	C/C(=N\NC(=O)c1cc(-c2ccc(O)cc2)nc2ccccc12)c1cccnc1	-5.2%
112	O=C(NC(=S)NNC(=O)c1ccccc1[N+](=O)[O-])c1ccc(Br)cc1	-22.2%
113	Cc1cccc(C)c1NC(=O)COC(=O)c1cc(-c2cccnc2)nc2ccccc12	-17.5%
114	CC(=O)N1CCc2c(sc(NC(=O)CN3C(=O)CCC3=O)c2C(N)=O)C1	?
115	COc1ccc(-c2nc3cnc(N(C)C)nc3n(-c3ccccc3)c2=O)cc1	13.7%
116	CCc1ccc(-c2nc(CSCC(=O)NCc3ccco3)c(C)o2)cc1	-15.7%
117	Cc1ccc(C(=O)N/N=C\c2ccncc2)s1	5.6%
118	S=C1NCCOCCOCCOCCN1	11.5%
119	COc1ccc(-c2nc(Cn3c(SCc4ccccc4F)nc4ccncc43)c(C)o2)cc1	-4.3%
120	Cc1ccc(C)n1-c1nn(S(=O)(=O)c2cccc3cccnc23)c2cccc(F)c12	9.8%
121	Cc1cc2nc(-c3ccc(SCC(=O)Nc4ccc5c(c4)OCCO5)nc3)[nH]c2cc1C	0.8%
122	COc1ccc(CCNC(=O)C2CCCN(S(=O)(=O)c3ccccc3)C2)cc1 (centres undefined)	-14.8%
123	CCOC(=O)c1ccc2c(c1)nc(SC/C(O)=C(\C#N)c1nc3ccccc3[nH]1)n2CC	-0.7%

# The list is partial; rates above refer to the full screens.
